Rango release inh = inhibitors of RanGTP-induced Rango-importin beta complex dissociation. Biochemical FRET Rango-importin beta, RanGTP-induced dissociation. O95149+P62826. AID 540253. 340,000 compounds, 0.071% hits. Potency, µM (titrated, usually from 46.1 µM), inactives show at the top dose activity change, negative = inhibition; active means falling FRET ratio curve, often poorly fitted, with flat reads before Ran was added; inconclusive means other falling curves, or compound fluorescence or quenching; inactive means flat or rising ratio curve;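 further: potency means the concentration at half of the fitted maximal effect; % of control where 0% means no effect; nearly all actives have a fitted effect of over 45% in size; -100% = wells without RanGTP and RCC1; the record marks most hits as doubtful in a second field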
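Two FRET readings bracket the reaction: one 5 min after compound meets Rango–importin beta, another 45 min after RanGTP-RCC1 (0.6 uM Ran, 0.2 uM RCC1, 2 mM GTP) is added. Only the second defines inhibition.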
Rango complex inh = prevents formation of the Rango-importin beta complex | 340,000 compounds, 0.031% hits | Potency, µM (doses to about 92.2 µM), without a hit: at the highest dose inhibition of complex formation | Rango CFP/YFP FRET sensor + importin beta, 45 min | AID 540263; active = rising FRET ratio curve, often small or poorly fitted; inconclusive = mostly compound fluorescence or quenching in the first reads; inactive = flat curves in all reads;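 further: potency means the concentration at half of the fitted maximal effect; 0% = DMSO wells and 100% = buffer wells lacking importin beta; nearly all actives have a fitted effect of over 15% in size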
Target sequence (Q14974 whole entry, looked up): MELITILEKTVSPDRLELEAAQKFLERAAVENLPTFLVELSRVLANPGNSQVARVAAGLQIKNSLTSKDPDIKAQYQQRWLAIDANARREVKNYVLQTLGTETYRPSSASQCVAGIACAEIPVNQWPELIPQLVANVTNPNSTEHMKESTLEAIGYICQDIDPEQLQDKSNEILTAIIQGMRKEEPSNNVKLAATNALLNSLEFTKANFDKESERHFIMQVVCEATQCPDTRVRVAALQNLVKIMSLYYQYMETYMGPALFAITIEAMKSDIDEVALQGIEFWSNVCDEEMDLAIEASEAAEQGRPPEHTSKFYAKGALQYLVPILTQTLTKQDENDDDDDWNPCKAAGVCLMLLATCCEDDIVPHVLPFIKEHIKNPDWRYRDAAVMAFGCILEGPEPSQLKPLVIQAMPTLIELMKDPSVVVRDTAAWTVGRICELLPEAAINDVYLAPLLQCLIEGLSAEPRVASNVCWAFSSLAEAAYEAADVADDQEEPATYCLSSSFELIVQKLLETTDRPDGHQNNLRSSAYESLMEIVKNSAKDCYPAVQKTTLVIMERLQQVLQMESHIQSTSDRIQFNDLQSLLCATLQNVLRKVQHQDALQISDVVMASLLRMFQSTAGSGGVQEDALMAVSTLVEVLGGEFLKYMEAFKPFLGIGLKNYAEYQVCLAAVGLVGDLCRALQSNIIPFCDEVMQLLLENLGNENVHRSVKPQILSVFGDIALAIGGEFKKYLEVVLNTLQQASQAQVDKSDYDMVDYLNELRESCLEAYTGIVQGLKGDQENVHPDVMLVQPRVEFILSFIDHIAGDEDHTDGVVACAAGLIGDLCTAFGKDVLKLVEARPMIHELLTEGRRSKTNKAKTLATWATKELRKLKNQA
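Inhibition scored from the CFP 486 nm/YFP 530 nm FRET ratio 45 min after adding 0.125 microM importin beta to 50 nM Rango biosensor preincubated 5 min with compound (room temperature, PBS with DTT, Tween-20, BSA). No-importin wells as positive control.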
miR-21 FLuc = miR-21 reporter, rising signal. 340,000 tested, under 10 active. Potency, µM (doses to about 38.3 µM), for the others: at the highest dose reporter change, positive = more light. HeLa miR-21 FLuc reporter, luciferase, 48 h. AID 2288; active = well fitted rising curve with a large enough effect; inconclusive = small, poorly fitted or top-dose-only effect; inactive = no such curve, though single readings can be large or run the other way;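 further: % of control where 0% means no effect; miR-21 action dims this reporter so a rising signal means less miR-21 action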
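Using DMEM plus 10% FBS, HeLa miR-21-FLuc cells are incubated with test compounds (final up to about 40uM) for 48 hours; firefly luciferase signal is then imaged following reagent-mediated lysis.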
GLA inh pH 4.5 = alpha-galactosidase A (human) inhibition, pH 4.5; purified enzyme, 4-MU-alpha-Gal fluorescence, pH 4.5; 230,000 tested, under 10 active; P06280; AID 1467; activity change, negative = inhibition, % at 105 µM; inconclusive = small, poorly fitted or top-dose-only inhibition, or a rising curve; inactive = flat fitted curve, though single readings scatter; no compound was filed as active;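 further: 0% = full activity with enzyme and -100% = basal without enzyme; dose as in the result columns while the protocol names 77 µM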
Starred values were filed as active, the others as inactive. This is a subset, so the mix of outcomes need not match the whole.

`COc1ccc(S(=O)(=O)ON=C2CC(C)(C)N(C(C)=O)C(C)(C)C2)cc1` gave Rango release inh -4%, Rango complex inh -5.0%, miR-21 FLuc -2% and GLA inh pH 4.5 5.
For CC1(C)CC(=O)C(C=NCCN2CCN(C(=S)Nc3ccc(F)cc3)CC2)=C(O)C1 the results were Rango release inh -2%, Rango complex inh -0.5%, miR-21 FLuc -1% and GLA inh pH 4.5 2.
`Cc1cc(C(=O)Nc2ccc(C(=O)O)cc2)c(C)o1` gave Rango release inh 1%, Rango complex inh -1.1% and miR-21 FLuc -12%.
Screening N#Cc1cccc(NC(=O)CN2C(=O)NC(Cc3ccccc3)C2=O)c1 (stereo not given) returned Rango release inh -8%, Rango complex inh 5.8%, miR-21 FLuc -11% and GLA inh pH 4.5 -14.
For CC(C)CCOC(=O)C1C2C=CC3(CN(Cc4cccs4)C(=O)C13)O2 (stereo not given) the results were Rango release inh -12%, Rango complex inh -0.2%, miR-21 FLuc -10% and GLA inh pH 4.5 5.
For O=P(O)(O)c1ccccc1OCc1ccccc1 the results were Rango release inh -1%, Rango complex inh -2.5%, miR-21 FLuc -3% and GLA inh pH 4.5 -8.
`CCN(CC)C(=O)c1oc2ccc(S(=O)(=O)N3CC(C)CC(C)C3)cc2c1C` (stereo not given) gave Rango release inh -11%, Rango complex inh -1.8% and miR-21 FLuc inconclusive.
COc1cccc(/C=C/C(=O)OCC(=O)c2ccc3c(c2)NC(=O)CO3)c1OC was read as Rango release inh 3%, Rango complex inh -0.4%, miR-21 FLuc 1% and GLA inh pH 4.5 10.
O=C(NC(Cc1ccccc1)C(=O)O)/C(=C\c1cccc([N+](=O)[O-])c1)NC(=O)c1ccco1 (stereo not given) was read as Rango release inh -3%, Rango complex inh inconclusive and miR-21 FLuc 5%.
For COC(=O)Cc1ccc(NC(=S)NCCCN2CCOCC2)cc1 the results were Rango release inh 7%, Rango complex inh -4.3%, miR-21 FLuc 0% and GLA inh pH 4.5 11.
Screening CC(C)NC(=O)CSc1nc2ccccc2n1-c1ccccc1 returned Rango release inh 1%, Rango complex inh -1.3%, miR-21 FLuc 0% and GLA inh pH 4.5 -3.
Screening COc1nc(N/N=C/c2cc3c(cc2Br)OCO3)nc(N2CCOCC2)n1 returned Rango release inh 2%, Rango complex inh 0.9%, miR-21 FLuc -12% and GLA inh pH 4.5 1.

Next part, overlapping the part above by 4 compounds.
O=C(NC(Cc1ccccc1)C(=O)O)/C(=C\c1cccc([N+](=O)[O-])c1)NC(=O)c1ccco1 (stereo not given) was read as Rango release inh -3%, Rango complex inh inconclusive and miR-21 FLuc 5%.
For COC(=O)Cc1ccc(NC(=S)NCCCN2CCOCC2)cc1 the results were Rango release inh 7%, Rango complex inh -4.3%, miR-21 FLuc 0% and GLA inh pH 4.5 11.
Screening CC(C)NC(=O)CSc1nc2ccccc2n1-c1ccccc1 returned Rango release inh 1%, Rango complex inh -1.3%, miR-21 FLuc 0% and GLA inh pH 4.5 -3.
Screening COc1nc(N/N=C/c2cc3c(cc2Br)OCO3)nc(N2CCOCC2)n1 returned Rango release inh 2%, Rango complex inh 0.9%, miR-21 FLuc -12% and GLA inh pH 4.5 1.
For COc1ccc(CCCc2nnc(SCc3nc4ccccc4c(=O)[nH]3)n2C)cc1C the results were Rango release inh 6%, Rango complex inh 0.6%, miR-21 FLuc -2% and GLA inh pH 4.5 4.
For O=C(CSc1nnc(-c2ccco2)n1Cc1ccccc1)OC1CCCCC1 the results were Rango release inh -8%, Rango complex inh -0.2%, miR-21 FLuc -54% and GLA inh pH 4.5 0.
Screening Cc1nnc(NC(=O)CCC(=O)NCc2cccs2)s1 returned Rango release inh 15%, Rango complex inh 13%, miR-21 FLuc -3% and GLA inh pH 4.5 1.
Screening CC(=O)Nc1cc2cc(NS(=O)(=O)c3ccc(Cl)cc3)ccc2oc1=O returned Rango release inh 0%, Rango complex inh 0.3%, miR-21 FLuc 4% and GLA inh pH 4.5 2.
CCn1c(=O)n(CC)c2cc(S(=O)(=O)N3CCc4ccccc43)ccc21 was read as Rango release inh 16%, Rango complex inh -0.3%, miR-21 FLuc 22% and GLA inh pH 4.5 -6.
`O=C(CCNC(=O)c1ccc(Br)cc1)NCCCSc1ccccc1` gave Rango release inh -15% and Rango complex inh 6.1%.
Screening C/C=C(\C)C(=O)NCCN1C2=NC[C@H](C(C)C)N2C[C@H]1Cc1ccc(O)cc1 returned Rango release inh 11%, Rango complex inh 1.3%, miR-21 FLuc 1% and GLA inh pH 4.5 1.
Screening Cc1ccc2oc(=O)cc(CN3CCN(Cc4ccccc4)CC3)c2c1 returned Rango release inh -16%, Rango complex inh 3.5% and miR-21 FLuc -3%.
For COc1cc(NC(=O)COC(=O)c2ccc(C)c(S(=O)(=O)N3CCCCC3)c2)c(C)cc1[N+](=O)[O-] the results were Rango release inh 7%, Rango complex inh 0.3%, miR-21 FLuc 1% and GLA inh pH 4.5 -2.
`Cc1ccccc1C(=O)Nc1nnc(-c2ccc(F)cc2)o1` gave Rango release inh -9%, Rango complex inh -1.3%, miR-21 FLuc 15% and GLA inh pH 4.5 -2.
For COc1ccc(-c2cc(C(F)F)n3ncc(C(=O)N4CCCCC4)c3n2)cc1 the results were Rango release inh -21%, Rango complex inh 0.4%, miR-21 FLuc -23% and GLA inh pH 4.5 4.
`Cc1cccc(C(=O)O/N=C(\N)c2ccc(Br)cc2)c1` gave Rango release inh -2%, Rango complex inh -0.4%, miR-21 FLuc -36% and GLA inh pH 4.5 -13.
`O=C(CN1CCCC1)N1CCCc2c1c(=O)oc1ccc(OCc3ccccc3)cc21` gave Rango release inh -7%, Rango complex inh -1.5%, miR-21 FLuc -4% and GLA inh pH 4.5 -5.
`O=C(NCCN1CCCC1)C1CCN(S(=O)(=O)N2CCC3(CC2)OCCO3)CC1` gave Rango release inh -4%, Rango complex inh -0.2%, miR-21 FLuc -4% and GLA inh pH 4.5 0.
C=CCSc1nc2c(cnn2-c2ccccc2)c(=O)n1N was read as Rango release inh -7%, Rango complex inh -1.5%, miR-21 FLuc -37% and GLA inh pH 4.5 2.
`COc1cc(=O)n2c(n1)SCCC2` gave Rango release inh 9%, Rango complex inh -0.2%, miR-21 FLuc 0% and GLA inh pH 4.5 3.
`O=C(Cn1c(=O)oc2ccccc21)NCC1COc2ccccc2O1` (stereo not given) gave Rango release inh 8%, Rango complex inh -3.7% and miR-21 FLuc -1%.
Screening Cc1ccccc1C1CC(=O)c2ccccc2C1C (stereo not given) returned Rango release inh 1% and Rango complex inh 7.5%.
Screening COC(=O)Cn1c2ccc(C)cc2c2nc(C)sc21 returned Rango release inh -4%, Rango complex inh 0.6%, miR-21 FLuc -3% and GLA inh pH 4.5 9.
`CSc1nc(-c2ccccc2)nc(N2CCN(C)CC2)c1C(C)=O` gave Rango release inh inconclusive, Rango complex inh -6.2%, miR-21 FLuc -11% and GLA inh pH 4.5 1.
For COc1ccccc1/C=C/c1nc2ccccc2c(=O)o1 the results were Rango release inh 9% and Rango complex inh -0.1%.
For COc1ccc(C2=NN(C(=O)c3ccccc3)C(c3ccc(OC)c(OC)c3)C2)cc1OC (stereo not given) the results were Rango release inh 1%, Rango complex inh 2.5% and miR-21 FLuc -17%.
`Cc1ccc(C(=O)COC(=O)CNC(=O)COc2ccccc2C)cc1C` gave Rango release inh -7%, Rango complex inh 0.1%, miR-21 FLuc -1% and GLA inh pH 4.5 -15.
`CC(C)(C)NC(=O)c1ccccc1NC(=O)c1ccc2c(c1)OCO2` gave Rango release inh -6%, Rango complex inh -1.3%, miR-21 FLuc 4% and GLA inh pH 4.5 4.

Grouped by structure: the compounds so far containing a nitro group on carbon.
O=C(NC(Cc1ccccc1)C(=O)O)/C(=C\c1cccc([N+](=O)[O-])c1)NC(=O)c1ccco1 (stereo not given) was read as Rango release inh -3%, Rango complex inh inconclusive and miR-21 FLuc 5%.
For COc1cc(NC(=O)COC(=O)c2ccc(C)c(S(=O)(=O)N3CCCCC3)c2)c(C)cc1[N+](=O)[O-] the results were Rango release inh 7%, Rango complex inh 0.3%, miR-21 FLuc 1% and GLA inh pH 4.5 -2.

Next structures
`Cc1c(C(=O)NC2CCCc3ccccc32)oc2ccc(S(=O)(=O)N3CCCCC3)cc12` (stereo not given) gave Rango release inh 9%, Rango complex inh -4.8%, miR-21 FLuc -3% and GLA inh pH 4.5 1.
CCCCCCCCC1=NCCc2c1[nH]c1ccccc21 was read as Rango release inh -22%, Rango complex inh inconclusive and miR-21 FLuc 7%.
`CCCCCCCCN1C(=O)N(C)C(N(O)C(=O)NC)C1(C)C` (stereo not given) gave Rango release inh -5%, Rango complex inh 0.0%, miR-21 FLuc -5% and GLA inh pH 4.5 4.
`C=C(C)CNC(=S)Nc1cccc(S(=O)(=O)NC2=NCCC2)c1` gave Rango release inh 17%, Rango complex inh -2.9%, miR-21 FLuc -5% and GLA inh pH 4.5 -5.
Screening O=C(Nc1nnc(C2CCCCC2)s1)c1cccs1 returned Rango release inh -16%, Rango complex inh 0.1%, miR-21 FLuc -55% and GLA inh pH 4.5 3.
For COc1ccc(CCC(=O)N(C)CC(=O)Nc2ccc(N3CCOCC3)cc2)cc1 the results were Rango release inh 1%, Rango complex inh 0.0%, miR-21 FLuc 0% and GLA inh pH 4.5 -3.
`O=[N+]([O-])c1ccc2nc(C(O)C(O)c3nc4ccc([N+](=O)[O-])cc4[nH]3)[nH]c2c1` (stereo not given) gave Rango release inh 2%, Rango complex inh 8.1% and miR-21 FLuc -6%.
`Cc1cccc(NC(=O)CCC(=O)c2cccs2)n1` gave Rango release inh -2% and Rango complex inh -0.9%.
For CC(C)=C1SC(N2CCN(c3cccc(C(F)(F)F)c3)CC2)=NC1=O the results were Rango release inh 3%, Rango complex inh 0.6%, miR-21 FLuc -3% and GLA inh pH 4.5 -14.
Cc1cccc(-c2nnc(SCC#N)n2-c2ccccc2)c1 was read as Rango release inh -13%, Rango complex inh 5.6%, miR-21 FLuc -9% and GLA inh pH 4.5 2.
COc1cc(C(=O)NNC(=O)c2ccc(NC(C)=O)cc2)cc(OC)c1OC was read as Rango release inh -13%, Rango complex inh -2.0%, miR-21 FLuc -1% and GLA inh pH 4.5 5.
C=CCNC(=S)NNC(=O)c1ccc(OC(C)C)cc1 was read as Rango release inh 1%, Rango complex inh 0.0%, miR-21 FLuc -10% and GLA inh pH 4.5 -14.
For C=CCc1c(C)nc(C)nc1N/N=C/c1ccccc1O the results were Rango release inh -17%, Rango complex inh inconclusive, miR-21 FLuc 14% and GLA inh pH 4.5 -8.
`O=S1(=O)N=C(N/N=C/C=C/c2ccccc2)c2ccccc21` gave Rango release inh 11%, Rango complex inh 3.6%, miR-21 FLuc -8% and GLA inh pH 4.5 -5.
Screening CCN(CC)C(=O)Cn1cc(S(=O)(=O)CC(=O)NCCc2ccc(OC)c(OC)c2)c2ccccc21 returned Rango release inh 10%, Rango complex inh 1.9%, miR-21 FLuc 0% and GLA inh pH 4.5 5.
CC(=O)Oc1c(C)c(=O)n(C)c2ccccc12 was read as Rango release inh 13%, Rango complex inh 7.1%, miR-21 FLuc -2% and GLA inh pH 4.5 5.
Screening CCOC(=O)C1CCCN(S(=O)(=O)c2ccc3c(c2)NC(=O)CO3)C1 (stereo not given) returned Rango release inh 3%, Rango complex inh 3.0% and miR-21 FLuc 6%.
`CC(=O)C1=C(C)Nc2ncnn2C1c1ccc(O)cc1` (stereo not given) gave Rango release inh 1%, Rango complex inh 0.8% and miR-21 FLuc 1%.
NS(=O)(=O)c1cccc(NC(=O)CCN2C(=O)C3CCCCC3C2=O)c1 (stereo not given) was read as Rango release inh 11% and Rango complex inh -4.5%.
Screening O=C(O)CN(CCO)CCN(CC(=O)O)CC(=O)O returned miR-21 FLuc 0% and GLA inh pH 4.5 -3.
CCCN1C(=O)/C(=C\C=C2\N(CC)c3ccccc3C2(C)C)SC1=S was read as Rango release inh 16%, Rango complex inh 5.3%, miR-21 FLuc 1% and GLA inh pH 4.5 -6.
For CCOc1ccc(NS(=O)(=O)c2ccc(NS(C)(=O)=O)cc2)cc1 the results were Rango release inh -6%, Rango complex inh -0.6%, miR-21 FLuc -3% and GLA inh pH 4.5 -1.
`Cc1cc(C)nc(SCCCNCc2c(F)cccc2Cl)n1` gave Rango release inh -15%, Rango complex inh -3.2% and miR-21 FLuc -5%.

Assay outcomes from PubChem.
